Source: PubChem BioAssay
NS1 function inh – inhibitors of influenza NS1 protein function; S. cerevisiae slowed by influenza A NS1, growth recovery by OD600; Potency, µM (highest dose often 46.1 µM), for the others: top-dose activity, positive = more growth; 0.4% of 270,000 active; also: actives are rising curves; nearly all actives have a fitted effect of over 50% in size
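A cell-based growth assay was used: compounds that relieve NS1-induced slow growth of budding yeast raise OD600. Assay medium was yeast nitrogen base with ammonium sulphate and -URA supplement, pH 6.0, with 2% galactose.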
Cruzain noTriton – cruzain (T. cruzi) inhibition without detergent | Potency, µM, inactives show max response, negative = inhibition, usual class: inhibitors | P25779 | 2.3% of 200,000 active | purified cruzain, Z-FR-AMC fluorescence, no detergent; active = well fitted curve in the direction sought with a large enough effect; inconclusive = small, poorly fitted or top-dose-only effect, or another doubt; inactive = no such curve, though single readings can be large; an effect the other way counts as inactive or inconclusive;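 also: plate controls were enzyme without inhibitor for no effect and buffer without enzyme for full effect; nearly all actives have a fitted effect of over 40% in size; top concentration of the series not given in the record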
Target sequence (P25779 123-467 limits assumed): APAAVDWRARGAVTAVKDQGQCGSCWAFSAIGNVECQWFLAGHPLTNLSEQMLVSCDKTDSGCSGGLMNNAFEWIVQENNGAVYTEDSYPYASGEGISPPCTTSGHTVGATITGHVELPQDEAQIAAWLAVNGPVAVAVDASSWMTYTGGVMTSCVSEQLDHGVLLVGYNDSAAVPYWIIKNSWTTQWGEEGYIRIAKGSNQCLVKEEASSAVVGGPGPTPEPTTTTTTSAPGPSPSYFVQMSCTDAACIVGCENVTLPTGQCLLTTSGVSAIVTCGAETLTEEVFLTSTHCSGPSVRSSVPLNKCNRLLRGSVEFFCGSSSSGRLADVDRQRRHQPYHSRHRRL
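Purified cruzain at 1.5 nM, pre-incubated 15 min with compound at room temperature in 100 mM sodium acetate pH 5.5, 5 mM DTT, 0.00005% Triton X-100. Reaction started with 2 uM Z-FR-AMC; AMC fluorescence increase over 60 s gives rate.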
Marburg entry inh – inhibitors of Marburg virus binding or cell entry. Marburg virus pseudotyped entry inhibition, cell reporter; control for the full effect not named in the record; about a third of the inactives were read at about 46 µM. Potency, µM (top dose mostly 37.8 µM), without a hit: at the top dose activity change, negative = inhibition, actives largely listed as inhibitors. 1.8% of 300,000 active. AID 540276; active = well fitted inhibition curve with a large enough effect; inconclusive = small, poorly fitted or top-dose-only effect, or effect the other way; inactive = flat fitted curve, though single readings scatter; tested in HEK293 cells; about a fifth of its hits are not listed in these tables; also: % is scaled to controls: 0 for no effect and ±100 for the full control effect; luciferase read-out
LASV entry inh – inhibitors of Lassa virus binding or cell entry; Potency, µM (top dose mostly 37.9 µM), for inactives: at the top dose activity change, negative = inhibition, usual class: inhibitors; AID 540256; Lassa virus pseudotype entry inhibition, cell reporter; control for the full effect not named in the record; 1.2% of 300,000 active; active means well fitted inhibition curve with a large enough effect; inconclusive means small, poorly fitted or top-dose-only effect, or effect the other way; inactive means flat fitted curve, though single readings scatter; tested in HEK293 cells; also: % is scaled to controls: 0 for no effect and ±100 for the full control effect; nearly all actives have a fitted effect of over 50% in size; luciferase read-out
Cruzain Triton – blocks cruzain activity in presence of Triton detergent; P25779; purified cruzain, Z-FR-AMC fluorescence, 0.01% Triton; Potency, µM, without a hit: max response, negative = inhibition, actives largely listed as inhibitors; 0.43% of 200,000 active; AID 1478; active = well fitted curve in the direction sought with a large enough effect; inconclusive = small, poorly fitted or top-dose-only effect, or another doubt; inactive = no such curve, though single readings can be large; an effect the other way counts as inactive or inconclusive;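 also: plate controls were neutral wells for no effect and buffer without enzyme for full effect; nearly all actives have a fitted effect of over 40% in size; top concentration of the series not given in the record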
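Steps: dispense cruzain (1.5 nM final) in acetate buffer pH 5.5 with DTT and 0.01% Triton X-100; pin-transfer compounds; incubate 15 min RT; add Z-FR-AMC (2 uM final); read fluorescence every 30 s, using the 60 s intensity change.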
2A StopGo – FMDV 2A StopGo reporter, luciferase signal; human cells with a luciferase reporter of 2A StopGo recoding; control for the full effect not named in the record; Potency, µM (highest dose often 57.9 µM), for the others: at the highest dose signal change, negative = less light; 1.2% of 410,000 active; AID 1159524; active = well fitted falling curve with a large enough effect; inconclusive = small, poorly fitted or top-dose-only effect; inactive = no such curve, though single readings can be large or run the other way; tested in HEK293T cells; also: % is scaled to controls: 0 for no effect and ±100 for the full control effect; nearly all actives have a fitted effect of over 45% in size; luciferase light after 4 h
RE007 growth inh – less growth of the S. pombe RE007 Vpr strain | S. pombe RE007 Vpr strain, BacTiter-Glo ATP luminescence, 24 h; control for the full effect not named in the record | Potency, µM (top dose mostly 92.2 µM), inactives show at the highest dose activity change, negative = less growth | 0.21% of 360,000 active | AID 651644; active = well fitted falling curve with a large enough effect; inconclusive = small, poorly fitted or top-dose-only effect; inactive = no such curve, though single readings can be large or run the other way;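 also: % is scaled to controls: 0 for no effect and ±100 for the full control effect; nearly all actives have a fitted effect of over 50% in size; the assay follows cell death caused by Vpr and the record does not say whether a fall means rescue or toxicity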
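Fission yeast strain RE007, carrying one chromosomally integrated HIV-1 vpr copy, was seeded at OD 0.01 in PMG+AL medium with 23 nL pinned compound. After 24 h at 30 °C and 99% humidity, viability was read by BacTiter-Glo luminescence.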
SARS PLpro yeast – SARS-CoV PLP inhibition in yeast; S. cerevisiae expressing SARS-CoV PLpro, growth rescue; control for the full effect not named in the record; Potency, µM (highest dose often 32.9 µM), without a hit: at the top dose activity, positive = growth rescue; 0.19% of 330,000 active; AID 485353; also: 0% is about no effect; nearly all actives have a fitted effect of over 55% in size; growth read by luminescence after 48 h
* marks the source's active call; other numbers are inactive results; ? = inconclusive; / = not tested or not shown; & = joins results of further samples; [ ] = remark or other dose. Unless noted, calls follow the shape of the dose curve; as a rule, active means well fitted rising curve with a large enough effect; inconclusive means small, poorly fitted or top-dose-only effect; inactive means no such curve, though single readings can be large or run the other way. Potency is read from the fitted curve at half-maximal effect.

Under each structure: NS1 function inh	Cruzain noTriton	Marburg entry inh	LASV entry inh	Cruzain Triton	2A StopGo	RE007 growth inh	SARS PLpro yeast
1: COc1ccc(NC(=O)Cc2nnc(SCC(=O)c3ccc(F)cc3)n2C)cc1
 : -12%	/	6%[46.1 µM]	16%[46.1 µM]	/	3%	6%	2%
2: Cc1ccc(C)c(C2=CSC3=NCCN23)c1
 : 0%	-1%	?	3%	12%	-12%	-5%	12%
3: CCOC(=O)C1NN=C(C(=O)c2ccccc2)C1c1ccc(OC)cc1 (stereo unspecified)
 : /	/	3%[46.1 µM]	-1%	/	-3%	-25%	2%
4: COc1ccc(CC(=O)Nc2ccc(-c3noc(-c4ccccc4OC)n3)cc2)cc1
 : -8%	-8%	?	15%	2.0%	-17%	9%	5%
5: COc1ccc(Nc2cc(C(=O)NCCCN(C)Cc3ccccc3)c3ccccc3n2)cc1
 : /	0%	/	-14%[46.1 µM]	-17%	-13%	/	/
6: COc1cc(/C=C/C(=O)OCC(=O)NCC2CCCCC2)ccc1O
 : /	/	?	-14%	/	-23%	5%	-1%
7: COC(=O)c1ccc(NC(=S)NC(=O)c2c(Cl)cnn2C)cc1
 : -3%	2%	?	0%	-8.6%	3%	-13%	18%
8: CCOC(=O)c1c(-c2ccccc2)csc1NC(=O)c1nn(CC)cc1Br
 : 8%	?	10µM*	?	-3.5%	/	3%	13%
9: CCN(CC)S(=O)(=O)c1ccc(N2CCCC2)c(NC(=O)C2CSC3(C)CCC(=O)N23)c1 (stereo unspecified)
 : /	/	13%	3%	/	1%	1%	?
10: COCCN1C(=O)NC(=O)/C(=C\c2ccc(Br)cc2)C1=O
 : /	/	19%	3%	/	-1%	-15%	0%
11: O=C(O)c1ccc2cccc(O)c2n1
 : 5%	/	0%&0%[14.2 µM]	23%	/	1%	23%	1%
12: Cn1c(NC(=O)c2ccco2)c(-c2ccccc2)c(=O)c2ccccc21
 : -3%	-5%	-7%[46.1 µM]	6%	-1.4%	4%	15%	-12%
13: CCO/N=C(\C)c1c(O)c(CC)c(-c2ccccc2)n(-c2ccccc2)c1=O
 : -2%	2%	0%	?	-10%	0%	0%	-29%
14: CCOc1ccccc1CNC(=O)C(CC)n1nc(C)c2c(C)n(-c3ccccc3)nc2c1=O (stereo unspecified)
 : /	0%	/	-22%[46.1 µM]	-2.8%	?	/	/
15: Cc1cc(C)cc(N2C(=O)CC(N3CCOCC3)C2=O)c1 (stereo unspecified)
 : -55%	2%	?	12%	1.9%	7%	-10%	-27%
16: CC(C)(C)C(=O)Nc1cccc(C(=O)c2cccc(NC(=O)C(C)(C)C)c2)c1
 : 0%	2%	-67%	-1%	-0.9%	-17%	4%	-1%
17: Cc1ccccc1-n1ncc(C(C)NS(=O)(=O)c2ccccc2Cl)c1C (stereo unspecified)
 : 15%	/	-16%	0%	/	-12%	-8%	-1%
18: O=c1c2ccccc2nc(-c2ccc(-c3ccccc3)cc2)n1-c1ccncc1
 : -1%	1%	?	2%	-0.3%	/	7%	-29%
19: CCOCCCNC(=O)C(c1ccccc1)N(Cc1cccs1)C(=O)c1ccccc1O (stereo unspecified)
 : /	/	?	?	/	18%	3%	3%
20: COc1ccc(CCN2C(=S)N(C)C(=O)C2CC(=O)Nc2ccc(OC)cc2)cc1 (stereo unspecified)
 : -3%	/	?	-30%	/	-13%	21%	0%
21: CC(=O)Nc1ccc(S(=O)(=O)NNC(=O)c2cccc3ccccc23)cc1
 : -2%	-5%	3%[46.1 µM]	7%	1.4%	-26%	-10%	-2%
22: CCOC(=O)N1CCC(NC(=O)c2ccc(N3CCC4(CC3)OCCO4)c([N+](=O)[O-])c2)CC1
 : /	/	?	?	/	25µM*	6%	3%
23: O=C(Nc1cc(C(F)(F)F)ccc1Cl)c1cc2nc3c(c(C(F)(F)F)n2n1)CCCC3
 : 2%	-26%	7%	?	-4.9%	-7%	-13%	-9%
24: Cc1cc(=O)[nH]c(SCC2COC3(CCCCC3)O2)n1 (stereo unspecified)
 : -1%	2%	?	9%	3.5%	-7%	0%	2%
25: Cc1cc(C)nc(N(C#N)Cc2ccc(Br)cc2)n1
 : -31%	-7%	13%	-24%	-5.9%	-6%	-18%	-8%
26: COc1ccc(S(=O)(=O)N2CCC(C(=O)NCc3ccco3)CC2)cc1C
 : -2%	/	4%[46.1 µM]	-3%	/	10%	2%	0%
27: O=C(Cn1ncc2c3ccccc3n(Cc3cccc(Cl)c3)c2c1=O)NCCC1=CCCCC1
 : /	-2%	24%[46.1 µM]	13%[46.1 µM]	-5.0%	-2%	/	/
28: O=C(Nc1cccc(C(F)(F)F)c1)c1n[nH]c(Cn2cncn2)n1
 : -10%	3%	-10%	-2%	1.5%	17%	31%	-1%
29: CCNc1nc2c(c(=O)n(C)c(=O)n2C)n1Cc1ccc(Cl)cc1
 : -4%	/	/	/	/	0%	9%	3%
30: O=C(NCCCCc1ccccc1)C1CC(c2cccc([N+](=O)[O-])c2)=NO1 (stereo unspecified)
 : -15%	4%	/	/	-1.7%	2%	6%	-11%
31: CNS(=O)(=O)c1cc(NC(=O)CCCNC(=O)c2ccc(Cl)cc2)ccc1C
 : -3%	/	-16%[46.1 µM]	-1%[46.1 µM]	/	23%	-12%	-3%
32: CC(C)(C)c1ccc(/C=C/C(=O)Nc2nncs2)cc1
 : -2%	-29%	?	?	-3.4%	-3%	4%	-3%
33: O=C(Cn1cnc2ccccc2c1=O)N/N=C/c1ccc(Br)cc1
 : 2%	/	-29%[46.1 µM]	-12%[46.1 µM]	/	-21%	2%	2%
34: CCn1c(=O)cc(OCC(=O)N(C)c2cc(Cl)ccc2C)c2ccccc21
 : /	4%	-28%[46.1 µM]	-2%[46.1 µM]	-0.7%	-10%	/	/
35: COc1ccc(Oc2cc(NN3CCCCC3)c([N+](=O)[O-])cc2[N+](=O)[O-])cc1OC
 : -1%	/	/	/	/	-14%	9%	7%
36: Cc1ccc(/C=N/NC(=O)c2cc(C3CC3)nc3ccccc23)o1
 : 18%	23%	?	?	-4.0%	-3%	8%	2%
37: Cc1ccc(C(=O)Nc2nccs2)cc1S(=O)(=O)N1CCCCC1
 : -39%	-18%	?	-18%	-5.7%	-25%	20%	8%
38: CCC(C(=O)NCCc1cc(OC)ccc1OC)n1nc(C)c2c(C)n(-c3ccccc3)nc2c1=O (stereo unspecified)
 : /	19%	/	-6%[46.1 µM]	-2.1%	?	/	/
39: Cc1ccc(NC(=S)N2CCSC2c2cccs2)cc1 (stereo unspecified)
 : /	/	?	-27%	/	42%[activator]	10%	5%
40: CCCC(CCC(=O)NC1CCCCC1)C(=O)O (stereo unspecified)
 : 15%	2%	16%	1%	6.5%	0%	-10%[3.69 µM]	2%
41: CC(C)S(=O)(=O)c1csc(NC(=O)Nc2cc(Cl)ccc2Cl)c1Cl
 : 3%	/	?	?	/	?	7%	1%
42: COc1ccc(CCNC(=O)c2ccc3c(c2)N(Cc2ccc(F)cc2)CCS3)cc1OC
 : 3%	-9%	?	?	-1.0%	?	13%	-8%
43: CC(=O)Nc1ccc(NC(=O)CCC(=O)OCC(=O)c2ccc(C)c([N+](=O)[O-])c2)cc1
 : /	/	-13%[46.1 µM]	6%	/	0%	-11%	0%
44: O=C(CCc1nc(-c2ccccc2)c(-c2ccccc2)o1)OCc1ccc(Br)cc1
 : 7%	?	-14%	4%	?	5%	10%	-1%
45: O=C(NCc1ccccc1)C1CC2CCCC(C1)C2=O (stereo unspecified)
 : 1%	1%	?	0%	3.4%	-14%	10%	4%
46: Cn1c(CCc2ccccc2)nnc1SCC(N)=O
 : -13%	/	?	-17%	/	7%	6%	-1%
47: COc1cccc(-n2c(-c3ccco3)nc3c(cnn3-c3ccccc3C)c2=O)c1
 : /	3%	?	?	-11%	14µM*	/	/
48: Cc1cccc(NC(=O)CSc2nnc(-c3cc(C)[nH]n3)n2N)c1
 : -4%	/	-10%[46.1 µM]	12%[46.1 µM]	/	7%	2%	4%
49: O=C(Nc1ccccc1)OC(CN1CCCCC1)C(F)(F)F (stereo unspecified)
 : -5%	4%	?	23%	1.0%	-18%	-3%	?
50: COc1ccc(N2CCN(C(=O)c3cccs3)CC2)cc1
 : 5%	/	/	/	/	27%	-7%	3%
51: CC(C)c1ccc(Nc2cc(C(=O)NCCc3ccccc3)c3ccccc3n2)cc1
 : /	-1%	-18%[46.1 µM]	-3%[46.1 µM]	-2.2%	-7%	/	/
52: CC(C)OP(=O)(OC(C)C)C(O)c1ccc(N(C)C)cc1 (stereo unspecified)
 : -1%	/	-12%	17%	/	3%	6%	0%
53: CN(C)/C=C(/C(=O)c1ccc(Cl)cc1Cl)S(=O)(=O)c1ccccc1
 : -3%	-3%	7%	-4%	7.7%	29%	7%	-7%
54: Cc1ccc(OCC(=O)O/N=C(\N)Cc2cccs2)cc1C
 : /	/	9%[46.1 µM]	8%	/	41%[activator]	-15%	/
55: CC(C)(C)c1ccc(NC(=S)NCCc2ccccn2)cc1
 : -5%	/	-14%	5%	/	8%	-20%	-2%
56: O=C(CCN1CCOCC1)NNC(=O)c1ccc(Cl)c([N+](=O)[O-])c1
 : /	/	-1%	18%	/	-15%	5%	2%
57: Cc1ccc(NC(=S)N=Nc2c(O)[nH]c3ccccc23)cc1
 : /	/	?	?	/	-11%	-8%	-6%
58: COc1ccc(S(=O)(=O)Nc2ccccc2)cc1
 : /	/	-5%	13%	/	52%[activator]	6%	/
59: Cc1cc(OCC(=O)NCC2(N(C)C)CCCCC2)cc(C)c1Cl
 : /	3%	/	-11%[46.1 µM]	10%	11%	/	/
60: Cc1cc(C(=O)N/N=C/c2sccc2C)no1
 : 1%	-19%	?	10%	-8.0%	104%[activator]	-13%	-29%
